SARS PLpro yeast = SARS-CoV PLP inhibition in yeast; Potency, µM (titrated, usually from 32.9 µM), inactives show at the top dose activity, positive = growth rescue; S. cerevisiae expressing SARS-CoV PLpro, growth rescue; control for the full effect not named in the record; hit rate 0.19% among 330,000; active means well fitted rising curve with a large enough effect; inconclusive means small, poorly fitted or top-dose-only effect; inactive means no such curve, though single readings can be large or run the other way; also: 0% is about no effect; nearly all actives have a fitted effect of over 55% in size; growth read by luminescence after 48 h
Marburg entry inh = Marburg virus entry inhibition; Marburg virus pseudotyped entry inhibition, cell reporter; control for the full effect not named in the record; about a third of the inactives were read at about 46 µM; Potency, µM (doses to about 37.8 µM), for inactives: at the top dose activity change, negative = inhibition, actives largely listed as inhibitors; hit rate 1.8% among 300,000; active = well fitted inhibition curve with a large enough effect; inconclusive = small, poorly fitted or top-dose-only effect, or effect the other way; inactive = flat fitted curve, though single readings scatter; tested in HEK293 cells; about a fifth of its hits are not listed in these tables; also: % is scaled to controls: 0 for no effect and ±100 for the full control effect; luciferase read-out
2A StopGo = lowers the luciferase signal of an FMDV 2A StopGo reporter; hit rate 1.2% among 410,000; Potency, µM (top dose mostly 57.9 µM), inactives show at the highest dose signal change, negative = less light; human cells with a luciferase reporter of 2A StopGo recoding; control for the full effect not named in the record; AID 1159524; active = well fitted falling curve with a large enough effect; inconclusive = small, poorly fitted or top-dose-only effect; inactive = no such curve, though single readings can be large or run the other way; tested in HEK293T cells; also: % is scaled to controls: 0 for no effect and ±100 for the full control effect; nearly all actives have a fitted effect of over 45% in size; luciferase light after 4 h
Cruzain noTriton = blocks cruzain activity in detergent-free assay | Potency, µM, for inactives: max response, negative = inhibition, hits mostly inhibitors | AID 1476 | hit rate 2.3% among 200,000 | purified cruzain, Z-FR-AMC fluorescence, no detergent;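 also: plate controls were enzyme without inhibitor for no effect and buffer without enzyme for full effect; nearly all actives have a fitted effect of over 40% in size; top concentration of the series not given in the record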
Target sequence (P25779 123-467 limits assumed): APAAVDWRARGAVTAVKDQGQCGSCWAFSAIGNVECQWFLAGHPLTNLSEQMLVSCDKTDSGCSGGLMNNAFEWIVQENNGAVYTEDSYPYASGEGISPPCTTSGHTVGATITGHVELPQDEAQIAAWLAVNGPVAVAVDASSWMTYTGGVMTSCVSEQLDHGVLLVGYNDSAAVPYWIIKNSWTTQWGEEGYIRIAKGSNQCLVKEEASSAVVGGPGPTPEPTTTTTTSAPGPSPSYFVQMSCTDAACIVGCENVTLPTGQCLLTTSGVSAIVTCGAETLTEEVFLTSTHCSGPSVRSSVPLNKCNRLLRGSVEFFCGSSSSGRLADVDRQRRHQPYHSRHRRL
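Purified cruzain at 1.5 nM, pre-incubated 15 min with compound at room temperature in 100 mM sodium acetate pH 5.5, 5 mM DTT, 0.00005% Triton X-100. Reaction started with 2 uM Z-FR-AMC; AMC fluorescence increase over 60 s gives rate.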
NS1 inh = inhibitors of influenza NS1 protein function | Potency, µM (top dose mostly 46.1 µM), inactives show at the top dose activity, positive = more growth | hit rate 0.4% among 270,000 | S. cerevisiae slowed by influenza A NS1, growth recovery by OD600; active means well fitted rising curve with a large enough effect; inconclusive means small, poorly fitted or top-dose-only effect; inactive means no such curve, though single readings can be large or run the other way; also: nearly all actives have a fitted effect of over 50% in size
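Compounds were scored for reversing the slow growth caused by influenza A NS1 in S. cerevisiae, measured by optical density at 600 nm. Assay medium contained 2% galactose at pH 6.0; NS1-free yeast of the same strain were the positive control.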
RE007 growth inh = less growth of the S. pombe RE007 Vpr strain; AID 651644; hit rate 0.21% among 360,000; Potency, µM (titrated, usually from 92.2 µM), for inactives: at the top dose activity change, negative = less growth; S. pombe RE007 Vpr strain, BacTiter-Glo ATP luminescence, 24 h; control for the full effect not named in the record; active = well fitted falling curve with a large enough effect; inconclusive = small, poorly fitted or top-dose-only effect; inactive = no such curve, though single readings can be large or run the other way;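 also: % is scaled to controls: 0 for no effect and ±100 for the full control effect; nearly all actives have a fitted effect of over 50% in size; the assay follows cell death caused by Vpr and the record does not say whether a fall means rescue or toxicity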
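Fission yeast strain RE007, carrying one chromosomally integrated HIV-1 vpr copy, was seeded at OD 0.01 in PMG+AL medium with 23 nL pinned compound. After 24 h at 30 °C and 99% humidity, viability was read by BacTiter-Glo luminescence.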
Cruzain inh Det = inhibitors of Trypanosoma cruzi cruzain with detergent | Potency, µM, without a hit: max response, negative = inhibition, actives largely listed as inhibitors | purified cruzain, Z-FR-AMC fluorescence, 0.01% Triton | P25779 | hit rate 0.43% among 200,000;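 also: plate controls were neutral wells for no effect and buffer without enzyme for full effect; nearly all actives have a fitted effect of over 40% in size; top concentration of the series not given in the record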
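Detergent-containing run (0.01% Triton X-100) in acetate buffer pH 5.5 with 5 mM DTT: enzyme at 1.5 nM final, 15 min compound preincubation at room temperature, then 2 uM Z-FR-AMC substrate. Activity taken as 60 s fluorescence increase at 360/450 nm.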
Lassa entry inh = blocks Lassa virus binding to or entry into cells. Lassa virus pseudotype entry inhibition, cell reporter; control for the full effect not named in the record. Potency, µM (highest dose often 37.9 µM), for inactives: top-dose activity change, negative = inhibition, most hits filed as inhibitors. hit rate 1.2% among 300,000; active means well fitted inhibition curve with a large enough effect; inconclusive means small, poorly fitted or top-dose-only effect, or effect the other way; inactive means flat fitted curve, though single readings scatter; tested in HEK293 cells; also: % is scaled to controls: 0 for no effect and ±100 for the full control effect; nearly all actives have a fitted effect of over 50% in size; luciferase read-out
* hit, by the source's call; ? = inconclusive; . = no result given; & = joins results of further samples; [ ] = remark or other dose. Unless noted, calls follow the shape of the dose curve; as a rule, active = well fitted curve in the direction sought with a large enough effect; inconclusive = small, poorly fitted or top-dose-only effect, or another doubt; inactive = no such curve, though single readings can be large; an effect the other way counts as inactive or inconclusive. Potency is read from the fitted curve at half-maximal effect. Hits appear at their usual frequency; overall some 4.6% were active at least once.

Structure,RE007 growth inh,NS1 inh,Lassa entry inh,Cruzain noTriton,2A StopGo,SARS PLpro yeast,Cruzain inh Det,Marburg entry inh
CCCCNC(=O)C1(c2ccc(OC)cc2)CCOCC1,10%,-2%,2%,-7%,-3%,-6%,0.2%,15%
CCCCN(CCCC)CCNC(=O)CN1C(=O)CSc2ccc(S(=O)(=O)N3CCOCC3)cc21,-10%,-3%,?,-5%,0%&-8%,1%,0.3%,.
O=C(C1=C[C@@H](c2ccccc2)C[C@@H](OCCCCO)O1)N1CCOCC1,20%,1%,.,.,9%,-1%,.,.
Clc1cccc(Cl)c1OCCOCCNCc1ccccc1,-10%,25%,.,.,-16%,-2%,.,.
CCN1CCN(C(=O)c2cc3cc(F)ccc3[nH]2)CC1,12%,1%,27%,.,19%,-1%,.,14%
Cc1ccc(C(=O)COC(=O)c2cc(C)no2)c(C)c1,18%,.,10%,.,-6%,-2%,.,-16%[46.1 µM]
CC(C)N(C(=O)c1sc2cc([N+](=O)[O-])ccc2c1Cl)C(C)C,-5%,-7%,?,-5%,-12%,-2%,-2.5%,-1%
Cc1cc(CNC(=O)Nc2ccc3c(c2)OCO3)nn1C,15%,-3%,17%,-5%,54%[activator],.,6.5%,?
Cn1c(SCC(=O)OC2CCCCC2)nnc1-c1ccc(S(=O)(=O)N2CCCC2)cc1,16%,-4%,?,2%,.,1%,1.7%,0%&-3%
CCS(=O)(=O)c1ccc(-c2csc(-c3ccc(Cl)cc3)n2)c(Cl)c1Cl,10%,6%,22%,?,-3%,1%,1.6%,?
COc1cccc(NC(=O)CN2C(=O)NC(C)(c3ccc(C)cc3)C2=O)c1 (stereo not drawn),6%,8%,-5%,.,-15%,6%,.,11%[46.1 µM]
COCCN1C(=O)N[C@@H](CCc2ccccc2)[C@H](C(C)=O)[C@H]1C,-10%,-4%,.,.,-22%,1%,.,-2%&-2%[14.2 µM]
CC1CCN(CCCNC(=O)CN2CCN(Cc3ccc(Cl)cc3)C2=O)CC1,-1%,?,11%,2%,-21%,13%,2.3%,-20%
CC(=O)c1c(C)oc2ccc(NS(=O)(=O)c3ccc(C(=O)O)cc3)cc12,-1%,1%,20%[46.1 µM],.,1%,2%,.,11%[46.1 µM]
CCOc1ccc(NC(=O)CCNS(=O)(=O)c2cccc3nonc23)cc1,3%,3%,-14%&3%[46.1 µM],3%,-5%&0%,-20%,-1.3%,-15%&10%[46.1 µM]
O=C(Nc1ccccc1)c1cccnc1N1CCOCC1,-1%,-1%,8%,-2%,-3%,10%,1.7%,-9%
O=[N+]([O-])c1cc([N+](=O)[O-])c2oc(-c3ccccc3)c(Br)c2c1O,28µM*,-65%,6%[46.1 µM],.,?,-13%,.,?
COc1cccc(/C=C/C(=O)Nc2ccc(N3CCOCC3)cc2)c1OC,6%,-8%,2%[46.1 µM],.,11%,-20%,.,?
CCN(Cc1cc2ccccc2[nH]c1=O)S(=O)(=O)c1ccccc1,13%,-18%,?,-7%,-16%,2%,-5.9%,6%
Cc1cc(OC(C)C(=O)NCC2CCC(C(=O)O)CC2)c2c3c(c(=O)oc2c1)CCC3 (stereo not drawn),2%,10%,.,.,3%,19%,.,.
O=C(Nc1ccccc1[N+](=O)[O-])C1=C(O)CCn2c1nc1ccccc12,-3%,1%,-6%,-3%,.,-1%,3.6%,0%
Cc1sc2nc(CSc3ccc([N+](=O)[O-])c(C(F)(F)F)c3)[nH]c(=O)c2c1C,21%,14%,12%,?,-33%,16%,-1.5%,?
COc1ccccc1C(=O)CC1(O)C(=O)N(CC(N)=O)c2ccccc21 (stereo not drawn),.,.,-20%[46.1 µM],0%,-21%,.,-1.3%,-6%[46.1 µM]
CCOc1ccc(OCC)c(NC(=O)c2cnc3c(-c4ccccc4)c(C)nn3c2C)c1,.,.,-2%[46.1 µM],23%,-27%,.,-2.8%,.
O=C(Nc1ccc(S(=O)(=O)Nc2nccs2)cc1)c1cc(-c2ccccn2)nc2ccccc12,-1%,15%,-5%,.,61%[activator],0%,.,17%[46.1 µM]

At a glance, part of the list above.
Structure,RE007 growth inh,NS1 inh,Lassa entry inh,Cruzain noTriton,2A StopGo,SARS PLpro yeast,Cruzain inh Det,Marburg entry inh
CC(=O)c1c(C)oc2ccc(NS(=O)(=O)c3ccc(C(=O)O)cc3)cc12,-1%,1%,20%[46.1 µM],.,1%,2%,.,11%[46.1 µM]
CCOc1ccc(NC(=O)CCNS(=O)(=O)c2cccc3nonc23)cc1,3%,3%,-14%&3%[46.1 µM],3%,-5%&0%,-20%,-1.3%,-15%&10%[46.1 µM]

Other compounds.
Structure,RE007 growth inh,NS1 inh,Lassa entry inh,Cruzain noTriton,2A StopGo,SARS PLpro yeast,Cruzain inh Det,Marburg entry inh
COc1ccc(C(=O)NCCC2=CCCCC2)cc1[N+](=O)[O-],5%,-2%,?,.,18%,1%,.,19%[46.1 µM]
COc1ccccc1-c1ccc2nnc(SC)n2n1,16%,-5%,.,.,4%,-3%,.,.
COC(=O)C1C(=O)OC(C)(C)C1C(C)C(=O)c1ccccc1 (stereo not drawn),1%,0%,-15%,2%,-14%,5%,6.3%,0%
COc1ccc(NS(=O)(=O)c2ccc3c(c2)N(C(C)=O)CCS3)cc1,2%,2%,.,.,4%,1%,.,.
COc1ccc(NC(=O)c2ccc3c(SCC(=O)O)c4c(nc3c2)CCCC4)cc1OC,.,.,6%[46.1 µM],-10%,-16%,.,4.0%,5%[46.1 µM]
CN(CC(=O)Nc1ccc(N2CCOCC2)cc1)C(=O)c1cc(F)c(F)cc1Cl,-11%,.,18%,.,0%,-1%,.,7%[46.1 µM]
COC(=O)C1=C(C)N(C(C)C)C(=O)C1(NC(C)=O)C(F)(F)F (stereo not drawn),20%,0%,32%[14.3 µM],0%,-4%,5%,-2.9%,3%
COc1ccc(NC(=O)c2oc3ccccc3c2NC(=O)c2cc(=O)c3cc(Cl)ccc3o2)cc1,.,.,20%[46.1 µM],1%,-12%,.,-0.8%,5%[46.1 µM]
Cc1cccc(C(=O)NCCC(=O)Nc2nc(C)c(Cc3ccc4c(c3)OCO4)s2)c1,1%,-5%,-18%,-11%,2%,5%,-2.4%,?
O=C(CSc1ccsc1[N+](=O)[O-])NCc1ccccc1,3%,.,.,.,49%[activator],-1%,.,?
COC(=O)CSc1nc2c(c(-c3ccc(C)o3)c1C#N)CCCC2,-3%,-3%,13%,1%,-28%,-13%,-6.9%,6%
Cc1ccc(NC(=O)/C(C#N)=C/c2ccc(-c3ccc(Cl)c(C(=O)O)c3)o2)cc1C,.,.,17%[46.1 µM],4%,73%[activator],.,1.1%,1%[46.1 µM]
CCc1ccccc1NC(=O)Cn1c(=O)ccc2cc(S(=O)(=O)N3CCCC3)ccc21,.,.,?,-1%,-27%,.,-0.2%,.
COc1ccc(NC(=O)N2Cc3ccccc3CC2C(=O)NC(C)(C)C)cc1 (stereo not drawn),-9%,2%,8%,-2%,9%,-2%,1.5%,18%
CCOc1ccccc1NS(=O)(=O)c1cc2c3c(c1)CC(=O)N3CCC2,-1%,13%,-7%[46.1 µM],.,9%,-1%,.,0%[46.1 µM]
Cc1ccc(-c2csc(Nc3ccccn3)n2)cc1,?,-25%,?,.,-62%,4%,.,2µM*
Oc1ccc(N2CCN(C(c3ccncc3)c3nnnn3C3CCCC3)CC2)cc1 (stereo not drawn),0%,-5%,-4%,4%,.,-1%,4.1%,-5%&8%
Cc1ccc(N(C(=O)Cc2cccs2)C(C(=O)NC2CCCCC2)c2ccccn2)cc1C (stereo not drawn),0%,-25%,?,19%,0%,-26%,-3.7%,-13%
COc1cc2c(cc1OC)C(C(=O)N1CCOCC1)C(c1cccs1)N(C)C2=O (stereo not drawn),-8%,-1%,-5%,3%,9%,-2%,-2.0%,-20%
CCc1c(C)c2cc3c(c(C)c2oc1=O)OCN(CCc1ccccc1F)C3,.,.,?,-3%,-10%,.,-5.7%,13%[46.1 µM]
COc1ccccc1NC(=O)COC(=O)C1CC1,0%,5%,6%[46.1 µM],.,10%,2%,.,6%[46.1 µM]
O=C(COc1ccc2c3c(c(=O)oc2c1)CCC3)NCC1CCC(C(=O)O)CC1 (stereo not drawn),2%,7%,.,.,-11%,-1%,.,.
O=C1OC(c2ccccc2)(c2ccc3cc(O)ccc3c2)c2ccccc21 (stereo not drawn),3%,.,-28%[46.1 µM],.,8%,.,.,5.6µM*
N#Cc1c(SCC(=O)OCc2ccccc2)nsc1SCC(=O)OCc1ccccc1,-14%,3%,9%,-16%,-18%,2%,4.4%,3%
O=C(O)CSc1nc2ccc(NC(=O)COc3ccc(Cl)cc3)cc2s1,.,.,1%[46.1 µM],16%,-3%,.,-11%,4%[46.1 µM]
CCOc1ccc(C(=O)Nc2c(C(=O)Nc3ccccc3F)oc3ccccc23)cc1OCC,.,.,-4%[46.1 µM],-2%,-7%,.,0.8%,7%[46.1 µM]
CCOc1ccccc1NC(=O)c1c(NC(=O)c2cccc(C)c2)sc2c1CCC2,.,.,0%[46.1 µM],3%,0%,.,0.3%,.
CN1/C(=C\C(=O)COC(=O)c2ccc(O)cc2)C(C)(C)c2ccccc21,9%,-2%,.,.,-28%,-2%,.,.
CCCCOC(=O)c1ccc(NC(=O)C2(c3cccs3)CCOCC2)cc1,.,.,-22%[46.1 µM],?,0%,.,-10%,.
CNc1nnc(-c2ccc(N(C)C)cc2)s1,-6%,-3%,?,?,.,-29%,-11%,?
C=CCN1C(=O)c2cccc3c(Br)ccc(c23)C1=O,3%,.,-19%[46.1 µM],.,-12%,-5%,.,-10%[46.1 µM]
